Calb biofilm kill: mixture kills Candida albicans biofilm cells; actives 0.02% (n = 120,000); AID 1242; inhibition, % at 7.6 µM; C. albicans biofilm persisters + clotrimazole, fluorescence viability; primary screen in compound mixtures of four per well;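 active = inhibition above 30.3% in the primary screen of four-compound pools, then above 30% when the compound was retested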;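 also: compounds exposed to preformed 24 h biofilms for 48 h; the number belongs to the whole pool; some results filed as inactive read as strong as hits; inactives centre near 12; 0% = biofilm with clotrimazole alone and 100% = kill control; retested singly at about 60 µM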
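Test system: C. albicans CAF4-2 wild-type biofilms; buffer or medium: RPMI/MOPS medium, pH 7.0; schedule: 24 h biofilm formation, then 48 h compound exposure, 37 °C; detection: Alamar Blue fluorescence; measure: percent inhibition of biofilm viability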
* marks the source's active call; other numbers are inactive results. A portion of the library, so the mix of outcomes need not match the whole.

SMILES	Calb biofilm kill
O=[N+]([O-])c1ccc(C(O)CNC(=S)Nc2ccccc2)cc1 (centres undefined)	9
CN(C)CC(O)COC(c1ccccc1)c1ccccc1 (centres undefined)	9
COc1ccc(N2CC(=O)N(c3ccccc3)C2=S)cc1	10
CCCCC(=O)NC1(C(F)(F)F)NC(=O)N(C)C1=O (centres undefined)	17
CCN1C(=O)N(C)[C@@H](c2ccccc2)C(C(=O)OC)=C1C	16
CN(C)CCCNC(=O)c1cc(C(=O)C2CCCCC2)c[nH]1	10
O=C(Nc1ccc(Cl)cc1)c1csc(-c2ccncc2)n1	6
Cc1cccc(C=Nc2ccc3c4c(cccc24)CC3)c1O	20
CCN(CC)C(=O)Oc1c(Cl)cc(Cl)c2cccnc12	3
CCNc1nc(NCC)nc(N/N=C/c2cc(OC)c(OC)c(OC)c2)n1	20
S=c1sc(SCCOc2ccccc2)nn1-c1ccccc1	8
O=C(O)C1OC2OC3(CCCCC3)OC2C2OC3(CCCCC3)OC12 (centres undefined)	-2
Fc1cc(F)c2nc(N3CCOCC3)sc2c1	10
COC(CNC(=O)c1cc(Sc2nnc(C)s2)nc2ccccc12)OC	9
CCC1=C(OC(=O)N(CC)CC)N2C(=O)OC(=NCC(=O)OC)[C@]2(C)[C@H]2C1=CC[C@H]1C(=O)N(CC(=O)OC)C(=O)[C@H]12	14
Cc1ccc(S(=O)(=O)N2CCN(C(=O)c3ccccc3)C2)cc1[N+](=O)[O-]	13
CC(C)(C)c1csc(NC(=O)Cc2cccs2)n1	22
C=CCn1c(C(c2ccccc2)c2ccccc2)n[nH]c1=S	4
COc1ccccc1C(=O)Nc1ccc(C(=O)O)cc1	12
CCn1ncc(CN2CCCC(C(=O)c3cccc(OC(C)C)c3)C2)c1C (centres undefined)	7
OCCCNc1nc(-c2ccccc2)nc2c1oc1ccccc12	19
CCOc1cc(/C=N\Nc2nc(Nc3ccccc3)nc(N3CCOCC3)n2)ccc1OC(=O)c1ccco1	19
C/C(CC(C)C)=N/Nc1ccc([N+](=O)[O-])cc1[N+](=O)[O-]	13
C=CCNC(=O)CN1C(=O)C2C3c4ccccc4C(c4ccccc43)C2C1=O (centres undefined)	5
O=C(Nc1ccccc1)c1ccc2snnc2c1	-5

Some of these compounds in order of molar mass, lowest first.
SMILES	Calb biofilm kill
COc1ccccc1C(=O)Nc1ccc(C(=O)O)cc1	12
Cc1cccc(C=Nc2ccc3c4c(cccc24)CC3)c1O	20
CCN1C(=O)N(C)[C@@H](c2ccccc2)C(C(=O)OC)=C1C	16
COc1ccc(N2CC(=O)N(c3ccccc3)C2=S)cc1	10
O=C(O)C1OC2OC3(CCCCC3)OC2C2OC3(CCCCC3)OC12 (centres undefined)	-2
COC(CNC(=O)c1cc(Sc2nnc(C)s2)nc2ccccc12)OC	9

Further compounds
SMILES	Calb biofilm kill
Cc1c(CN2CCCCC2)c(O)n(CCO)c(=O)c1C#N	-10
O=C(Cn1cnc2cc([N+](=O)[O-])ccc2c1=O)NC1CCS(=O)(=O)C1 (centres undefined)	12
O=[N+]([O-])c1ccc(COc2ccc(Br)cc2CN2CCOCC2)cc1	-6
CN1C2=NCCN2C(=O)c2cc(Cl)ccc21	19
CC(C)C(c1nnnn1CCc1ccccc1)N1CCC(C(N)=O)CC1 (centres undefined)	4
O=C(CO/N=C/c1ccc2c(c1)OCO2)Nc1cccc(Br)c1	15
O=C(COc1ccc(Br)cc1)NCc1cn2ccccc2n1	11
O=C(Nc1nc2cc3c(cc2s1)OCO3)C1=COCCO1	12
COC(=O)c1ccccc1NC(=O)N1CCN(c2ccccc2)CC1	20
O=C(Nc1ccc2c(c1)OCO2)c1ccc(N2CCCC2)c([N+](=O)[O-])c1	23
N#C/C(=C\C1=C(N2CCOCC2)C(=C\c2ccccc2)/CC1)C(=O)Nc1ccccc1F	6
O=C(/C=C/c1cccs1)NCc1ccccc1	11
O=S(=O)(c1ccc(F)cc1F)N1CCCN(c2ccc(C(F)(F)F)cn2)CC1	19
Cc1cc(N2CCCCC2)nc2ccccc12	12
O=c1[nH]c(CSc2ncnc3sccc23)nc2ccccc12	21
O=C(N/N=C/c1cc(Br)ccc1O)C(c1ccncc1)N1CCOCC1 (centres undefined)	6
O=C(NNC(=S)Nc1ccc(OC(F)F)cc1)c1cc2c(s1)CCCC2	8
O=C(Nc1cccc(Cl)c1)Nc1ccccc1-n1ccnc1	9
C(#Cc1ccccc1)C[N+]1(CC#Cc2cccc3ccccc23)CCCC1	15
CCOC(=O)c1sc2nc(-c3ccccc3)ccc2c1N	16
Cc1cc(=O)[nH]c(SCC(=O)Nc2ccccc2[N+](=O)[O-])n1	16
O=C(NCc1ccco1)c1ccc(F)c(S(=O)(=O)N2CCCCC2)c1	3
O=C(O)c1cc(N2N=C(C(F)(F)F)/C(=C/C=C/c3ccco3)C2=O)ccc1Cl	20
O=C(N/N=C/c1cccnc1)c1cccc(N2CCCC2=O)c1	18
COC(=O)CN1C(C)=Nc2ccc(C)cc2C1c1ccccc1 (centres undefined)	24
(list continues)
SMILES	Calb biofilm kill
O=C(Nc1nnc(C2=COCCO2)o1)c1ccc(S(=O)(=O)N2CCCCC2)cc1	13
Cc1cccc(C(=O)NC(C)C(c2cccs2)N2CCOCC2)c1 (centres undefined)	12
O=C(NC(=S)Nc1ccc2ncccc2c1)c1ccccc1	6
CCn1c(C)cc(/C=C2/SC(=S)N(CC(=O)O)C2=O)c1C	16
O=C(CSc1nnc(COc2ccc(Cl)cc2)o1)N1CCOCC1	15
Cc1c(-c2csc(N)n2)cnn1C	0
CC(=O)NCC1CCCN(Cc2cn(-c3ccccc3)nc2-c2ccc3c(c2)OCO3)C1 (centres undefined)	9
Cc1ccc(CNC(=O)N2CCN(C)CC2)cc1	3
CCOc1ccc(N2C(=O)CC(NCCc3c[nH]c4ccccc34)C2=O)cc1 (centres undefined)	7
S=c1[nH]nc(-c2cc(-c3ccccc3)n[nH]2)n1/N=C/C(Br)=C/c1ccccc1	17
CCCCC(=O)NNC(=O)CC(=O)Nc1ccccc1C(=O)O	14
Cc1ccc(S(=O)(=O)N/N=C/c2cccs2)cc1	13
O=C(CCl)c1ccc2c(c1)CCN2C(=O)C1CCCCC1	21
CC(=O)Nc1ccc(S(=O)(=O)Nc2nc3ccccc3nc2N2CCc3ccccc3C2)cc1	16
O=C(Nc1ccc(Cl)c([N+](=O)[O-])c1)C(NCCCO)c1ccccc1 (centres undefined)	12
CCOC(=O)C1=C(O)C(=O)N(C2CCCCC2)C1	12
CCSc1nnc(NC(=O)C2CCN(S(=O)(=O)c3c(C)c(C)cc(C)c3C)CC2)s1	14
Cc1ccc(S(=O)(=O)N(C)C)cc1-n1c(SCC(=O)N(C)C)nc2ccccc2c1=O	12
CCOC(=O)c1cc(CC)sc1NC(=O)COc1ccc2c(C)cc(=O)oc2c1	19
O=C(Nc1ccc2c(c1)OCO2)C1CCN(C(=O)c2ccc(Cl)cc2)CC1	0
O=C(ONC1=NCCCCC1)c1ccc([N+](=O)[O-])cc1	24
NNC(=O)c1ccc(COCC(F)(F)F)cc1	13
O=C(c1ccco1)N(Cc1ccccc1)Cc1ccccn1	2
Cc1c(-c2ccc(/C=N/NC(=O)C(=O)Nc3ccccc3F)o2)cccc1[N+](=O)[O-]	13
CCn1c(C)nc2cc(C(=O)N3N=C(CCOC)CC3(O)C(F)(F)F)ccc21 (centres undefined)	15
More results
SMILES	Calb biofilm kill
NC(=O)[C@H]1CC2(CC(c3cccc(NC(=O)COc4ccc(Cl)cc4)c3)=NO2)CN1C(=O)c1ccc(Cl)cc1 (some centres undefined)	13
CC(NC(=O)Cc1ccc(F)cc1)c1ccc(F)cc1 (centres undefined)	6
CC1CC(NC(=O)c2cnc3n(c2=O)CCS3)CC(C)(C)C1 (centres undefined)	17
C=CCc1ccccc1OCC(O)CN1CCN(CCN2C(=O)c3cccc4cccc(c34)C2=O)CC1 (centres undefined)	19
O=C(OCC(=O)C12CC3CC(CC(C3)C1)C2)c1cccnc1	10
COc1ccc(C(=O)Nc2ccc(N3CCN(C(=O)C(C)C)CC3)cc2)cc1[N+](=O)[O-]	19
FC(F)(F)c1cnc(Oc2cccc3ccccc23)c(Cl)c1	10
CCOc1ncccc1C(=O)OCC(=O)Nc1ccc(C)c(S(=O)(=O)N(C)C)c1	5
CCN(C(=O)COC(=O)c1cccnc1Nc1cccc(C(F)(F)F)c1)C1CCS(=O)(=O)C1 (centres undefined)	8
O=C(CN1CCCC1)Nc1ccc([N+](=O)[O-])cc1	15
Cc1ccc(CN2CCN(/N=C/c3sccc3C)CC2)c(C)c1	14
O=C(NCCc1nc2ccccc2[nH]1)/C(=C/c1ccco1)NC(=O)c1ccccc1Br	9
Cc1ccc(NC2=C/C(=N/S(=O)(=O)c3cccs3)c3ccccc3C2=O)cc1	4
Cn1c(SCC(=O)Nc2cccc(F)c2)nc2c([nH]c3ccccc32)c1=O	6
CC1c2ccsc2CCN1S(=O)(=O)c1cccs1 (centres undefined)	15
O=C(Cc1cccs1)N(c1ccc(F)cc1)C1(C(=O)NC2CCCCC2)CCCC1	10
O=C(Nc1c(O)c2ccccc2[nH]c1=O)c1ccco1	5
Nc1ccc2nc(SCC(=O)Nc3ccc(N4CCOCC4)c(Cl)c3)sc2c1	11
COc1ccc(C2C(CN3CCOCC3)C(=O)N2c2ccccc2)cc1 (centres undefined)	12
Cc1ccc(-c2cc(C(F)F)n3ncc(C(=O)Nc4cn(C)nc4C)c3n2)cc1	9
O=C(COC(=O)Cn1cnc2ccccc21)Nc1ccc2c(c1)C(=O)c1ccccc1C2=O	15
N#C/C(=C\Nc1ccc(Cl)cn1)S(=O)(=O)c1ccccc1	20
Cc1ccc2nc(N/N=C/c3ccccc3F)nc(-c3ccccc3)c2c1	9
Cc1c(Cl)c(=O)n2c(=O)c(Cl)c(C)n12	11
Cc1ccc(C)c(N2CN(CCC3=CCCCC3)CNC2=S)c1	-1

Filtered by structure: the entries above with a cyano group.
SMILES	Calb biofilm kill
Cc1c(CN2CCCCC2)c(O)n(CCO)c(=O)c1C#N	-10
N#C/C(=C\C1=C(N2CCOCC2)C(=C\c2ccccc2)/CC1)C(=O)Nc1ccccc1F	6
N#C/C(=C\Nc1ccc(Cl)cn1)S(=O)(=O)c1ccccc1	20

Gathered by group: the entries above with a COOH group (five)
SMILES	Calb biofilm kill
O=C(O)C1OC2OC3(CCCCC3)OC2C2OC3(CCCCC3)OC12 (centres undefined)	-2
COc1ccccc1C(=O)Nc1ccc(C(=O)O)cc1	12
O=C(O)c1cc(N2N=C(C(F)(F)F)/C(=C/C=C/c3ccco3)C2=O)ccc1Cl	20
CCn1c(C)cc(/C=C2/SC(=S)N(CC(=O)O)C2=O)c1C	16
CCCCC(=O)NNC(=O)CC(=O)Nc1ccccc1C(=O)O	14

Remaining list, next part.
SMILES	Calb biofilm kill
CN(CC(=O)NCc1cccnc1)S(=O)(=O)c1ccccc1	24
CC1(C)C(=O)Nc2ccccc2N1C(=O)CSc1nc(-c2ccccc2)cs1	13
CCOC(=O)/C(=N/Nc1ccccc1OC)N1CCCc2ccccc21	23
CC(C)CNS(=O)(=O)c1ccc(CC(C)C)cc1	19
O=C(COC(=O)c1ccc(NS(=O)(=O)c2cccs2)cc1)NCc1ccco1	25
CN(C)c1cc(-c2ccc(Cl)c(Cl)c2)oc(=O)c1Cl	25
COc1ccc(CCNC(=O)COc2ccccc2[N+](=O)[O-])cc1OC	10
CC(C)N(CCc1ccncc1)C(=S)Nc1ccc(F)c(Cl)c1	9
CCN(CCn1cccn1)C(=O)CCc1nnc(Cc2c[nH]c3ccccc23)o1	25
Oc1ccccc1/C=N/n1cnn(Cc2ccccc2Cl)c1=S	13
N#Cc1ccc(Sc2ccccn2)c([N+](=O)[O-])c1	15
CCOc1ccc(N(C(=O)CNS(=O)(=O)c2ccccc2)C(CC)C(=O)NCc2ccco2)cc1 (centres undefined)	5
CCOC(=O)N1CCC(Nc2c(NCCCN3CCN(c4ccc(OC)cc4)CC3)c(=O)c2=O)CC1	7
O=C(COc1ccc2c(c1)CCC2)NCc1ccc(Cl)cc1	17
CN(C)CCNC(=O)/C=C/c1cn(-c2ccccc2)nc1-c1cc2ccccc2oc1=O	0
O=C(Nc1ccc(F)cc1)Nc1ccc(NC(=O)c2ccccc2O)cc1	29
Cn1c(CS/C(N)=N/N=C/c2ccccc2)c(Br)c(=O)n1-c1ccccc1	19
C=CCCCCCCCCc1nc(SCC(=O)O)n[nH]1	22
CN1CCN(NC(=O)c2cn(-c3ccccc3)nc2-c2cccc(Br)c2)CC1	11
COc1ccc(C(O)Cc2nc3ccccc3n2C)cc1OC (centres undefined)	15
Cc1cc(N2CCN(S(=O)(=O)c3ccc4ccccc4c3)CC2)n2ncnc2n1	19
COc1ccc(C([O-])=Nc2ccc[n+](-c3nc4ccccc4nc3NS(=O)(=O)c3ccccc3)c2)cc1	8
COC(=O)c1cnc(NNC(=O)c2ccc([N+](=O)[O-])cc2)nc1C(F)(F)F	27
C1=C(c2ccccc2)Nc2ccccc2N=C1c1ccccc1	5
Cc1ccc(C)c(-n2c(SCC(=O)NC(C(=O)O)C(C)C)nnc2-c2cccc(Cl)c2)c1 (centres undefined)	22
O=C(Nc1cccc(F)c1)c1cccnc1NCCc1ccccc1	6
Cc1ccccc1Nc1cc(C(=O)NCc2ccco2)c2ccccc2n1	18
N=c1c2c3c(sc2ncn1Cc1ccccc1)CCCC3	-4

4 consecutive records already listed, for reference:
SMILES	Calb biofilm kill
Cc1ccc(C)c(-n2c(SCC(=O)NC(C(=O)O)C(C)C)nnc2-c2cccc(Cl)c2)c1 (centres undefined)	22
O=C(Nc1cccc(F)c1)c1cccnc1NCCc1ccccc1	6
Cc1ccccc1Nc1cc(C(=O)NCc2ccco2)c2ccccc2n1	18
N=c1c2c3c(sc2ncn1Cc1ccccc1)CCCC3	-4

Bioassay records: PubChem, PCMD
